# H5N1 CPE = MDCK cell protection from H5N1 avian flu; inhibition, % at 50 µM; cytopathic effect, luminescence, 72 h; hits give high values; no value below 0 was filed and about half of the inactive calls have no number; reference of the scale not given here; actives 0.07% (n = 96,000); in the data active = inhibition above about 25%
# * hit, by the source's call; i = inactive.
# Start of the listing, in advance:
SMILES,H5N1 CPE
O=C(NC1CCCC1)c1ccc2nc(-c3ccco3)c(-c3ccco3)nc2c1,0.3
CCCS(=O)(=O)N1CCc2cc(OC)c(OC)cc2C1,i
CN(C)CCCNc1oc(-c2ccccc2)nc1C#N,0.5
CC(C)(C)c1cc(C(=O)N2CCc3ccccc32)ccn1,1.1
O=C(NCc1ccccc1)c1ccc(Cn2cc(C(F)(F)F)ccc2=O)cc1,1.0
CCOC(=O)c1ccc2ncc(C(=O)OCC)c(NCc3ccco3)c2c1,0.9
Cn1c(=O)c2c(nc(N3CCc4ccccc4C3)n2Cc2ccccc2F)n(C)c1=O,1.1
COc1cc(NC(=O)CN2c3ccccc3CC2C)cc(OC)c1OC (configuration not stated),0.5
CCOC(=O)C(=CNCC(=O)O)C(=O)OCC,i
CCCOc1ccc(-c2nnc(-c3ccco3)o2)cc1,i
O=C(CSc1nnc(C2CC2)n1Cc1ccccc1)c1ccc(S(=O)(=O)N2CCOCC2)cc1,i
CN1CCN(c2nc(N3CCN(c4ccccc4)CC3)ncc2F)CC1,i
Cc1ccc(N=c2c([N+](=O)[O-])nn(-c3ccccc3)n2O)c(C)c1,i
O=C1c2ccccc2C(=O)N1CCCCCc1nc(-c2ccccc2)no1,i
Cc1cc(C)n2nc3ccccc3c2n1,i
C=C1N(CCCCCC(=O)O)C(=O)OC12CCCCC2,i
COc1ccccc1N1CCN(CC(=O)c2ccc3ccn(C(C)=O)c3c2)CC1,i
CCOC(=O)c1c(NC(=O)CSc2nnnn2C)sc(C)c1C,i
Cc1ccc(-n2sc3ccccc3c2=O)cc1S(=O)(=O)N1CCCCC1,0.2

# The listing, previewed entries included:
SMILES,H5N1 CPE
O=C(NC1CCCC1)c1ccc2nc(-c3ccco3)c(-c3ccco3)nc2c1,0.3
CCCS(=O)(=O)N1CCc2cc(OC)c(OC)cc2C1,i
CN(C)CCCNc1oc(-c2ccccc2)nc1C#N,0.5
CC(C)(C)c1cc(C(=O)N2CCc3ccccc32)ccn1,1.1
O=C(NCc1ccccc1)c1ccc(Cn2cc(C(F)(F)F)ccc2=O)cc1,1.0
CCOC(=O)c1ccc2ncc(C(=O)OCC)c(NCc3ccco3)c2c1,0.9
Cn1c(=O)c2c(nc(N3CCc4ccccc4C3)n2Cc2ccccc2F)n(C)c1=O,1.1
COc1cc(NC(=O)CN2c3ccccc3CC2C)cc(OC)c1OC (configuration not stated),0.5
CCOC(=O)C(=CNCC(=O)O)C(=O)OCC,i
CCCOc1ccc(-c2nnc(-c3ccco3)o2)cc1,i
O=C(CSc1nnc(C2CC2)n1Cc1ccccc1)c1ccc(S(=O)(=O)N2CCOCC2)cc1,i
CN1CCN(c2nc(N3CCN(c4ccccc4)CC3)ncc2F)CC1,i

# 2 entries drawn at random from the list so far, as already listed:
SMILES,H5N1 CPE
O=C(CSc1nnc(C2CC2)n1Cc1ccccc1)c1ccc(S(=O)(=O)N2CCOCC2)cc1,i
CCOC(=O)c1ccc2ncc(C(=O)OCC)c(NCc3ccco3)c2c1,0.9

# The results go on:
SMILES,H5N1 CPE
Cc1ccc(N=c2c([N+](=O)[O-])nn(-c3ccccc3)n2O)c(C)c1,i
O=C1c2ccccc2C(=O)N1CCCCCc1nc(-c2ccccc2)no1,i
Cc1cc(C)n2nc3ccccc3c2n1,i
C=C1N(CCCCCC(=O)O)C(=O)OC12CCCCC2,i
COc1ccccc1N1CCN(CC(=O)c2ccc3ccn(C(C)=O)c3c2)CC1,i
CCOC(=O)c1c(NC(=O)CSc2nnnn2C)sc(C)c1C,i
Cc1ccc(-n2sc3ccccc3c2=O)cc1S(=O)(=O)N1CCCCC1,0.2
COC(=O)c1nn(-c2ccc3c(c2)CCN3C(C)=O)cc1O,i
COc1ccc(OC)c(C(=O)COC(=O)c2ccc(C)o2)c1,i
CCN(CCO)c1ncnc2c1sc1nc(CC(C)C)c3c(c12)CC(C)(C)OC3,i
O=C(O)C1CCN1C1CCCCC1 (configuration not stated),i
COc1ccc(NC(=O)C2C3C=CC(O3)C2C(=O)NCc2cccnc2)cc1 (configuration not stated),i
O=C(COC(=O)c1ccc(Sc2ccccc2)c([N+](=O)[O-])c1)NC1CCCc2ccccc21 (configuration not stated),0.6
CCc1cc2c(cc3c(=O)n(CC(=O)N4CCN(c5ccccn5)CC4)nc(CC)n32)s1,0.7
CCNc1nc(N)c(C(=C(C#N)C#N)c2ccccc2)s1,1.0
CC(=O)Nc1ccccc1C(=O)C(=O)O,1.3
Cc1nc(N2CCN(c3ccccc3)CC2)nc2c1C(=O)CC(c1ccccc1)C2 (configuration not stated),1.5
Cc1cc(SCC(=O)N/N=C/c2ccc(O)cc2O)c(C)cc1Br,3.3
Cc1noc(C)c1C(=O)N1CCC(Cc2ccccc2)CC1,2.0
Cc1nc(N)sc1N=Nc1ccc(Br)cc1,i
CC(=O)c1nc(N2C(=O)C3CC=C(C)CC3C2=O)sc1C (configuration not stated),0.1
Cc1nc2ccccc2n1C1CC(=O)N(Cc2ccccc2)C1=O (configuration not stated),0.4
O=c1cc(O)c2c(=O)n(-c3ccccc3)c3ccccc3c2o1,0.3
CCCCCOc1ccc(NC(=O)CCCC(=O)O)cc1,i
CCOc1ccc(N(CC(=O)Nc2ccccc2C)S(=O)(=O)c2c(C)noc2C)cc1,i
O=C(COC(=O)c1ccc(S(=O)(=O)N2CCOCC2)cc1)Nc1nc(-c2ccccc2)cs1,0.3
C=CCSc1n[nH]c2nc3c(c(=O)n12)C1(CCCC1)Cc1ccccc1-3,0.8
Cc1nonc1NC(=O)CSc1nnc(-c2ccoc2C)n1C,i
CCNS(=O)(=O)c1ccc2c3c(cccc13)C(=O)N2,i
N/C(=N\OS(=O)(=O)c1cc(Cl)ccc1Cl)c1ccncc1,0.5
O=C1CC(NCc2cccs2)C(=O)N1c1ccc(Cl)cc1 (configuration not stated),i
O=C(CCN1C(=O)c2ccccc2C1=O)Nc1ccncc1,i
CCOC(=O)c1cnc2ccc(C)cc2c1Sc1ccccc1C(=O)OC,2.5
CC(=O)Nc1ccc(S(=O)(=O)NCCSCc2ccco2)cc1,0.7
Cc1ccc(C2C3=C(CC(C)(C)CC3=O)Nc3n[nH]c(C)c32)cc1 (configuration not stated),0.2
COc1ccc(N=C2SC(C(=O)O)CC(=O)N2Cc2ccc(OC)c(OC)c2)cc1 (configuration not stated),0.8
COc1ccc(CNC(=O)C2CCC(CNS(=O)(=O)c3cccc4nsnc34)CC2)cc1 (configuration not stated),0.1
CCOC(=O)c1c(N)n(CCN2CCOCC2)c2nc3ccccc3nc12,i
O=C(CCCn1c(=S)[nH]c2cc3c(cc2c1=O)OCO3)NC1CC1,1.0
O=C(NC1=NCCS1)c1cc2ccccc2o1,i
O=C(O)CCCCCN1C(=O)CCC1=O,0.1
OC(Cc1nc2ccccc2[nH]1)c1ccccc1Cl (configuration not stated),0.7
CSc1nc(C)c2c(n1)N(c1ccc(F)cc1)CC2,i
O=C(NCCN1CCOCC1)c1c(F)c(F)c(F)c(F)c1F,i
CC(=O)Nc1cccc(NC(=O)C2CC3CCC2C3)c1 (configuration not stated),i
COc1ccc(NC2=C(C)C(=O)CC2)cc1,0.2
Cc1nc(NC(=O)C2CC3CCCC(C2)C3=O)sc1C (configuration not stated),0.4
CCN(CC)CCN1C(=O)c2oc3ccccc3c(=O)c2C1c1ccccc1 (configuration not stated),i
COC(=O)c1ccc(CSc2nc3ccccc3c(=O)n2CC(C)C)o1,i
COc1ccccc1C(=O)Nc1cc2cc(Cl)ccc2oc1=O,i
O=C(O)c1ccc(-c2ccc(Cl)cc2Cl)o1,0.6
O=C(COc1ccc(Cl)cc1Cl)N/N=C1\CCCc2ccccc21,0.1
CCCC(=O)Nc1ccccc1NC(=O)CCC,0.1
CCN1/C(=C/c2ccc3ccccc3[n+]2CC)C=Cc2ccccc21,i
CCOc1cc(C2/C(=C(/O)c3ccc(OC(C)C)cc3)C(=O)C(=O)N2CCCOC)ccc1O (configuration not stated),i
Cc1cc(NC(=O)CC(CN(C)S(=O)(=O)c2ccccc2)c2ccccc2)no1 (configuration not stated),1.6
CC1=C(C)CS(=O)N(S(=O)(=O)c2ccccc2)C1 (configuration not stated),4.8
CC(/C=N/NC(=O)c1ccc(Br)cc1)=C\c1ccccc1,i
Cc1occc1C(=O)NC(C)CCc1ccccc1 (configuration not stated),i
CCCOc1ccc(C2C(=O)N(C3CCCCCC3)CC(=O)N2Cc2ccco2)cc1OC (configuration not stated),i
# Following part
SMILES,H5N1 CPE
O=C(OCC#CCSc1nnc(-c2ccncc2)o1)c1cccs1,2.6
O=C(Nc1cccc(Cl)c1)O/N=C\c1ccncc1,i
c1ccc(-n2nnc3ccccc32)nc1,i
CCCc1c(C)c2c(C)[nH]nc2oc1=O,i
Cc1ccc(C)c(N2CCN(C(=O)C3CCCN(S(=O)(=O)c4c(C)noc4C)C3)CC2)c1 (configuration not stated),8.9
CN1CCN(Cc2nc3c(c(=O)n(C)c(=O)n3C)n2CCCc2ccccc2)CC1,0.7
O=C(Nc1ccc2c(c1)OCO2)c1cn(Cc2ccc(F)cc2)nn1,i
COc1ccccc1OCC(=O)O,0.8
CCc1nc(SCC(=O)Nc2ccc(C(=O)O)cc2)n[nH]1,i
O=C1C2CC=C(Cl)CC2C(=O)N1CCN1CCOCC1 (configuration not stated),i
c1ccc(-c2nc3cnccn3c2Nc2ccc3c(c2)OCCO3)cc1,0.4
Cc1cc(=O)[nH]c(SCCCOc2ccc(F)cc2)n1,0.3
COc1ccc(NC(=O)CSc2nnc(-c3ccc(C)cc3)n2N)cc1,i
Brc1ccc2oc3c(N4CCOCC4)ncnc3c2c1,i
O=C1CC(c2cccc(Oc3ccccc3)c2)NC(=O)N1 (configuration not stated),i
CC(=O)N1CCc2cc(Br)cc(S(=O)(=O)N3CCCCCC3)c21,0.2
COc1cc(-c2nnc(COc3ccc(Cl)cc3C)o2)cc(OC)c1OC,i
CCCCc1nc2n[nH]c(N)c2c2c1CCCC2,i
Cc1cc(C)cc(NS(=O)(=O)c2ccc3oc(=O)ccc3c2)c1,i
CCN(CC)C(=O)CC1(c2ccccc2OC)CCOC(C(C)C)C1 (configuration not stated),1.0
COc1ccc(OC)c(N=Cc2c(O)[nH]c3ccccc23)c1,2.5
CCOC(=O)c1cccc(NC(=O)c2cccs2)c1,2.0
Cc1sc(=NC(=O)c2ccco2)n(C)c1-c1ccccc1,1.9
Cc1onc(-c2ccccc2Cl)c1C(=O)OCC(=O)Nc1ccc2c(c1)OCO2,i
CCOC(=O)C1CCc2nc3ccccc3c(=O)n21 (configuration not stated),i
COC(=O)c1nnn(Cc2ccccc2)c1N,i
COc1ccc(CCNC(=O)CSc2nc(-c3ccco3)cc(C(F)(F)F)n2)cc1,i
Cc1ccc(-c2nn3c(C)nnc3s2)cc1NC(=O)c1ccc(OC(C)C)cc1,1.0
CCCCN(NC(C)=O)c1nc(Cl)nc(NC(C)C)n1,i
CCCc1nc2oc(C(=O)c3ccccc3)c(N)c2c2c1COC(C)(C)C2,0.1
O=C1CN(c2nnnn2-c2ccccc2)CCN1,i
CCOC(=O)c1sc(N)c(C#N)c1COC(=O)CNC(=O)c1cc(OC)c(OC)c(OC)c1,1.3
Cc1csc(NC(=O)C2CCCO2)n1 (configuration not stated),1.2
Cc1ccc(S(=O)(=O)N/N=C\c2ccc([N+](=O)[O-])o2)cc1,2.2
Cc1ccc(S(=O)(=O)N(CC(O)CN2CCOCC2)c2cc(Cl)ccc2Cl)cc1 (configuration not stated),i
C=CCn1c(SCc2nc3ccccc3nc2C)nnc1-c1ccoc1C,i
COc1ccc(/C=N/NC(=O)c2ccc3ccccc3c2)cc1OS(=O)(=O)c1ccc(NC(C)=O)cc1,i
O=C(Oc1ccc2c(=O)c(Cl)coc2c1)c1cccnc1,i
Nc1ccccc1C#Cc1ccccc1,0.3
CC(C)(C)c1cc(NC(=O)C2CCCO2)no1 (configuration not stated),0.4
COc1cccc(NC(=O)C2CCN(Cc3cnn(-c4ccccc4)c3-n3cccc3)CC2)c1,i
COc1ccc(CNC(=O)c2cc3c(=O)n4ccccc4nc3n(Cc3cccnc3)c2=N)cc1,1.6
COc1ccc(Cl)cc1N1C(=O)[C@@H]2C(c3cccc(OC)c3OC)=NO[C@@H]2C1=O,0.7
CCOc1ccc(S(=O)(=O)N(C)c2ccc(OCC(=O)N3CCOCC3)cc2)cc1,0.5
O=C(CCl)NNc1cccc(Cl)n1,i
CS(=O)(=O)Nc1ccccc1C(=O)N1CCCC1,i
Cn1c2ccccc2c2nn(-c3ccccc3)c(=O)cc21,3.5
CC(C)OCCCN1C(=O)c2[nH]nc(-c3ccccc3O)c2C1c1cccc(Cl)c1 (configuration not stated),1.3
COc1ccc(S(=O)(=O)Nc2ccccc2C(=O)OC2CCCN(C)C2)cc1OC (configuration not stated),0.5
CCOC(=O)c1cc2c(C)n(-c3ccc(OCC)cc3)c(C)c2ccc1=O,1.3
CN1CCN(Cc2c(C#N)c3ccccc3n2C)CC1,0.5
COc1ccc(C2C(C(C)=O)=C(O)C(=O)N2c2ccc(Br)cn2)cc1 (configuration not stated),i
O=C(NCc1nnc(SCC(=O)N2CCCCCC2)o1)c1ccco1,i
O=C(OCCCCN1C(=O)c2ccccc2C1=O)c1n[nH]c2ccccc12,i
CCn1nc(C(=O)Nc2ccccc2C)c(Cl)c1Cl,i
COc1cc2c(cc1OC)CN(Cc1ccc(C)s1)CC2,0.6
O=C1c2oc3ccc(Br)cc3c(=O)c2C(c2cccc(F)c2)N1CCO (configuration not stated),0.5
Cc1nc2c(-c3ccccc3)c(C)nn2c(C)c1CCC(=O)N1CCOCC1,0.3
Cc1nc2sc(C#N)c(N)c2c2c1CCCC2,i
CCn1nc(NS(=O)(=O)c2ccccc2)c2cc3cccc(C)c3nc21,0.1
# (listing goes on)
SMILES,H5N1 CPE
Cc1ccc(CCNS(=O)(=O)c2ccc(C)cc2)cc1,0.6
C/C(Cn1nnc([N+](=O)[O-])n1)=N\NC(=O)c1cccc(Cl)c1,i
CC(=NCCCNC1CCCCC1)C1=C(O)CC(C)(C)CC1=O,0.7
COc1ccccc1-n1c(CNC(=O)COc2ccccc2)n[nH]c1=S,0.9
CC(=O)N(C1=NCCCS1)c1ccc(F)cc1,i
N#CCSc1nccc(-c2cc(Cl)sc2Cl)n1,0.3
CCCCN(C)C(=O)c1sc2ncn(CC)c(=O)c2c1C,i
Cc1ccc(-n2nnnc2-c2cnc(-c3cccnc3)nc2C(F)(F)F)cc1,0.9
COc1ccc(-c2nc(CSCC(=O)N3CCc4ccccc4C3)c(C)o2)cc1OC,0.4
CCOc1ccc(S(=O)(=O)Nc2ccccc2C(=O)NCc2ccco2)cc1,0.1
CCOC(=O)c1cc2ccccc2n1CCN(CC)CC,0.3

# Bioassay records deposited in PubChem by SRMLSC.

# The list is partial; count on the stated rates, not on these rows.
